Screening data as filed in PubChem BioAssay.
HSV replic up – HSV replication enhancement; HSV replication augmentation in cells, fold increase; maximum fold increase; actives 0.005% (n = 220,000); AID 1956;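 active = peak rise of 1.5-fold or more in the series; inconclusive = self-fluorescent or not available for retest; tested in PC3 cells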;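 note: first round at 10 µM; read as green reporter fluorescence; hits show the peak of a series up to 25 µM; 1 = signal of infected wells without compound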
RGS16-Gao – RGS16-Galphao interaction regulator (human); binding response (% of control), % at 10 µM; bead-based flow cytometry RGS16-Galphao binding, fluorescence; actives lie on both sides; actives 0.38% (n = 220,000); O15492+P09471; AID 1441;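 active = below 25% or above 175%, edge rows of some plates excepted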;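 note: Galphao activated by GDP with aluminum fluoride before binding; 100% = wells without compound and 0% = beads without RGS; some results beyond the cut were filed as inactive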
Insulin prom inh – TRM-6 insulin promoter activity inhibition. TRM-6 cells (human fetal islet line), insulin promoter-eGFP reporter, imaging; reporter expression induced with tamoxifen. inhibition, % at 2 µM. actives 0.9% (n = 130,000);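 active = inhibition above the mean plus 3 SD, with well images judged a real hit on visual review, cut at about 60% in these data, passing the limit was not always enough; inconclusive = inhibition over the cutoff but images rejected on review; inactive = inhibition not above the cutoff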
GALR2 agonist – agonists of human galanin receptor 2 (GALR2) | GALR2-expressing cells, agonist activation read-out | activation, %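 (tested at 5 µM)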 | actives 0.48% (n = 140,000) | AID 803;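 active = above mean plus 3 SD of all compounds, about 5% in these data, not always enough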;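 note: 0% = vehicle buffer wells and 100% = reference agonist at full effect; tested in CHO reporter cells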
PKD1 inh – blocks activity of human protein kinase D1; AID 797; inhibition, %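 (about 10 µM by stock and volumes)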; PKD1 kinase fluorescence polarization assay; actives 0.056% (n = 200,000); Q15139;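 active = inhibition of 50% or more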;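 note: controls were vehicle for no effect and a reference inhibitor for full effect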
Target sequence (Q15139 whole entry, looked up): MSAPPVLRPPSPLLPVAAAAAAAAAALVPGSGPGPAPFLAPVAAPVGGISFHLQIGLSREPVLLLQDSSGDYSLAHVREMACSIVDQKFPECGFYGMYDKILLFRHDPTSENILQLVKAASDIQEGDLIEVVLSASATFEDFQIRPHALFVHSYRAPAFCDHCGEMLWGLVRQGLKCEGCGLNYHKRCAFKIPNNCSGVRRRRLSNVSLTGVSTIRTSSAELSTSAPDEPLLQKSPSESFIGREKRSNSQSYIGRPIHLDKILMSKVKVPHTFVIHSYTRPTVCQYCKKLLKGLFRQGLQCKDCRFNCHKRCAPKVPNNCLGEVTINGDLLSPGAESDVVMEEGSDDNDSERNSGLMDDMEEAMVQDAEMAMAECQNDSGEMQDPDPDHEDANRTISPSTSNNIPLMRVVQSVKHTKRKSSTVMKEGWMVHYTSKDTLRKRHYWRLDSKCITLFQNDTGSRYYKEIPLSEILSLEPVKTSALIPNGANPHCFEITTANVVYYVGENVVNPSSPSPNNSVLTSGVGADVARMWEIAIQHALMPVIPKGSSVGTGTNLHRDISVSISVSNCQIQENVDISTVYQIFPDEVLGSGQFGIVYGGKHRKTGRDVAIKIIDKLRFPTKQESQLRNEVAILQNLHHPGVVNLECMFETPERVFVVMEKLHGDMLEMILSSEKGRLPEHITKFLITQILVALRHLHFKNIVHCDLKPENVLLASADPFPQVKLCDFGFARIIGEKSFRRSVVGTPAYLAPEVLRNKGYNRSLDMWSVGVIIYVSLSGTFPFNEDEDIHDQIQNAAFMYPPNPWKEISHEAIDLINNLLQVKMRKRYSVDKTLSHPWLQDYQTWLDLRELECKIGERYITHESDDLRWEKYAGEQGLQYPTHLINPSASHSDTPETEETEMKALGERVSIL
Insulin prom inh cell count – recorded beside Insulin prom inh, whose call it bears; normalized cell count, %; measured here: cell count, toxicity; reference of the scale not given here;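 cells exposed to compound for 48 h; stained nuclei by imaging scaled within each plate; lower means fewer cells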
HSV replic up primary fold – also measured in HSV replic up; calls as there; fold increase; compound at 10 µM; measured here: primary screen fold increase 10 uM; tested in PC3 cells;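 GFP signal in the first replicate; 1 = infected wells without compound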
* marks the source's active call; other numbers are inactive results; i = inactive; ? = inconclusive; . = not tested or not shown; & = joins results of further samples.

SMILES	HSV replic up	HSV replic up primary fold	RGS16-Gao	Insulin prom inh	Insulin prom inh cell count	GALR2 agonist	PKD1 inh
Cc1ccc(OCC(=O)N(Cc2ccc(N(C)C)cc2)C2CCS(=O)(=O)C2)cc1C (stereo not given)	i	0.87	100	.	.	.	.
Cc1ccc(-c2nc(CS(=O)CC(=O)N3CCN(c4ncccn4)CC3)c(C)o2)cc1 (stereo not given)	.	.	97	.	.	-3.3	-7
O=C(c1cccs1)N1CCN(Cc2ccccc2[N+](=O)[O-])CC1	i	1	47	21	66	-1.2	-14
CCOC(=O)NC1C=CS(=O)(=O)C1 (stereo not given)	i	1.1	99	-9	108	-2.2	-6
O=C(CSc1ccc(-c2nc3ccccc3[nH]2)cn1)Nc1ccc(S(=O)(=O)N2CCCC2)cc1	i	0.88	109	-4	100	-1.8	-5
O=C(/C=C/c1ccco1)N/C(=C\c1ccccc1)C(=O)NCCc1nc2ccccc2[nH]1	i	1.1	119	-19	81	-1.0	1
CCOC(=O)c1c(CSC(=N)N)n(-c2ccc(Br)cc2)c2cc(Br)c(OC(C)=O)cc12	i	0.53	104	28	104	34*	5
CCOC(=O)COc1ccccc1C1Nc2ccccc2C(=O)N1c1cccc(Cl)c1 (stereo not given)	i	1.2	105	48	123	0.0	4
CC(C)c1ccc(N2C(=O)[C@@H]3Cc4ccccc4CN3C2=O)cc1	i	0.79	104	-64	141	-1.1	-12
N/C(=N\S(=O)(=O)c1ccc(Cl)cc1)N1CCOCC1	i	1	95	.	.	.	.
O=C(c1ccc2snnc2c1)N1CCN(c2ccccn2)CC1	i	1	99	22	71	-1.9	-5
Cc1cc(C)nc(Oc2ccc(Br)cc2Br)n1	i	0.96	105	.	.	.	-6
CCn1nc(C(=O)Nc2ccc(S(=O)(=O)Nc3nccs3)cc2)c2ccccc2c1=O	.	.	86	.	.	0.4	5
CCOC(=O)c1c(Nc2ccccc2N)cc(C)nc1C	i	0.87	100	-24	92	-1.9	4
O=C(CCSc1nnc2ccc3ccccc3n12)Nc1ccc(F)cc1	i	0.89	.	-6	107	-1.1	-4
CCOC(=O)C1=c2/c(=C/c3ccccc3OC)c(N)c(C#N)n2C(=O)C(c2ccccc2OC)S1 (stereo not given)	.	.	97	0	64	-0.1	-11
CCN(CC)C(=O)CN1C(=O)C2CC=C(Cl)CC2C1=O (stereo not given)	.	.	106	.	.	-0.7	-10
Cc1cccc(C)c1NC(=S)N(Cc1ccco1)C1CCN(C(C)C)CC1	i	0.98	106	-71	126	-0.6	-5
CS(=O)(=O)N(CC(=O)NC1CCCC1)c1ccc(Oc2ccccc2)cc1	i	1	99	.	.	.	-10
O=C(NCc1ccccc1)[C@H]1C[C@@H]1[C@H](NP(=O)(c1ccccc1)c1ccccc1)c1ccccc1	i	0.87	110	-9	82	-1.3	-15
CC(C)(C)c1ccc(C(=O)NC(=S)NCC2CCCO2)cc1 (stereo not given)	i	0.9	140	.	.	-0.3	13
CCc1cc2c(NCc3ccco3)ncnc2s1	i	0.95	98	29	83	-2.5	-12
CCOc1ccc2nc(NCCNS(=O)(=O)c3ccccc3)c(C#N)cc2c1	i	1	108	-23	82	1.2	12
O=C(Nc1ccc(Cl)cc1)N1CCC(c2nc(-c3ccc(F)cc3)no2)CC1	i	0.89	100	.	.	-0.5	-15
Nc1c(-c2ccc(F)cc2)cnc2ncnn12	i	0.97	107	10	112	-1.7	-7
Cc1ccc2c3c([nH]c2c1)C(=O)CC(C)(C)S3	i	0.85	101	.	.	.	-5
Cc1onc(-c2c(Cl)cccc2Cl)c1C(=O)n1nnc2ccccc21	i	0.89	99	-10	113	-1.0	-8
Cc1csc(NC(=O)/C=C/c2ccc3c(c2)OCO3)n1	i	0.94	91	14	122	-0.1	-3
O=S(=O)(c1ccc(F)c(F)c1F)N1CCN(C(=S)Nc2ccccc2)CC1	i	0.93	110	-324	65	.	-3
CCN1C(=O)OC2(CCCCC2)C1(C)O (stereo not given)	i	0.97	101	40	125	-1.4	2
CCOC(=O)c1cc(NC(=O)c2cc(C)on2)cc(C(=O)OCC)c1	i	0.9	98	13	50	-0.4	-3
CCCCNC(=O)CCCCC(=O)N/N=C/c1ccccc1Cl	i	0.94	97	8	161	0.2	-3
CC(C)C(=O)N1CCN(c2nc(-c3ccccc3)c3c(c2C#N)CC(C)(C)OC3)CC1	i	1	105	.	.	0.0	0
NNc1nc2ccc(Cl)cc2s1	i	1.2	99	.	.	0.9	8
CCOc1ccc(NC(=O)CSc2nnc(CCNC(=O)c3ccc(OC)cc3)n2CC)cc1	.	.	98	.	.	-0.2	3
Cc1ccc2nc(C)cc(C(=O)OCC(=O)Nc3cccnc3Cl)c2c1	i	0.98	110	.	.	.	-1
CC(C)NCCCCOc1ccc(Br)cc1Cl	i	0.84	101	.	.	.	-2
COc1ccc(C(CNC(=O)c2ccc(S(=O)(=O)N3CCCC3)cc2)N2CCOCC2)cc1 (stereo not given)	i	0.84	88	.	.	.	.
Cc1ccc(C2NC(=O)c3c(sc4c3CCN(C)C4)N2)s1 (stereo not given)	?	.	100	.	.	1.8	1
C(=N\Nc1ncnc2sc3c(c12)CCC3)/c1cccs1	i	0.62	101	.	.	-1.9	-2
O=C(Nc1cc(-c2ccccc2)[nH]n1)c1ccccc1F	i	0.93	96	.	.	.	.
CN(C)CCNC(C(=O)Nc1cc(Cl)cc(Cl)c1)c1ccccc1 (stereo not given)	i	0.99	100	.	.	.	2
CC(=O)c1ccc(NC(=O)CSc2nc(N)c3cc4c(nc3n2)CCCC4)cc1	i	1	107	44	146	1.2	-3
O=C(O)c1cc(-c2ccc(/C=N/Nc3ccc([N+](=O)[O-])cn3)o2)ccc1Cl	?	.	102	-3	125	.	4
CC1(C)CC2CC(C)(CN2C(=O)COC(=O)c2ccc(Cl)cc2N)C1 (stereo not given)	i	1.1	102	.	.	-2.4	-4
CN=C1CC(C)(C)CC(=O)/C1=C(/O)CCCN1C(=O)c2ccccc2C1=O	i	0.97	106	12	86	.	3
CCOC(=O)c1ccc[n+](CC(=O)c2ccc(OC)cc2)c1	i	1.1	106	.	.	-1.3	11
C=CCn1c(SCC(=O)c2ccc(Cl)s2)nc2ccccc2c1=O	i	1	101	-17	101	-2.7	5
Cc1nc(SCCO)c([N+](=O)[O-])[nH]1	i	1.1	95	.	.	.	.
O=C(CN1CCOCC1)Nc1ccc([N+](=O)[O-])cc1Br	i	0.9	102	.	.	.	3

(list continues)
SMILES	HSV replic up	HSV replic up primary fold	RGS16-Gao	Insulin prom inh	Insulin prom inh cell count	GALR2 agonist	PKD1 inh
CC(C)=NOC(=O)c1ccc(-c2ccccc2)cc1	i	1.1	107	37	71	-1.7	-12
Nc1ncnc(N2CCOCC2)c1N	i	1	105	.	.	-0.6	2
Cc1cc(C)n(-c2nc3ccccc3c(=O)n2OC2CCCCC2)n1	i	0.91	100	-27	65	-0.3	-10
Cc1nnsc1C(=O)N1CCC(C(=O)c2ccccc2)CC1	i	0.88	85	.	.	.	.
Cc1c(-c2nnnn2-c2ccc(F)cc2)cnc2cc3c(cc12)OCO3	i	0.99	103	.	.	-0.9	-4
O=[N+]([O-])c1ccc(N2CCN(S(=O)(=O)c3ccccc3)CC2)cc1NCC1CCCO1 (stereo not given)	i	0.89	109	-36	104	0.2	-11
NS(=O)(=O)c1ccc(NC(=S)NC(=O)c2ccco2)cc1	i	1.1&1.1	95&107	.	.	-0.3	3
CC(Oc1ccccc1)C(=O)NC1=NCCS1 (stereo not given)	i	1	92	.	.	.	-7
O=C(O)c1ccc(CNCc2cccc(Cl)c2Cl)cc1	i	0.98	145	-13	90	-1.5	-5
O=C(CN1CCN(Cc2ccccc2)CC1)N/N=C/C=C/c1ccccc1[N+](=O)[O-]	.	.	112	.	.	-0.8	6
Nn1c(SCC(=O)NC(=O)NC2CCCC2)nnc1-c1ccccc1F	i	0.78	103	3	106	-0.8	-4
Cc1cc(Nc2c(C)n(C)n(-c3ccccc3)c2=O)n2c(nc3ccccc32)c1C#N	.	.	105	0	84	-0.4	-6
CCOc1ccc(-n2c(SCC(=O)NC3CCS(=O)(=O)C3)nnc2-c2cccnc2)cc1 (stereo not given)	i	0.93	114	-38	92	.	1
CCCN(CCC)CC(O)Cn1cc(/C=C/C(=O)c2cccs2)c2ccccc21 (stereo not given)	.	.	101	-33	113	0.9	12
O=c1cc(O)c2c(=O)n(-c3ccccc3)c3c(c2o1)CCCCC3	i	0.95	107	-52	85	-1.2	-8
O=C(O)c1cccc(N/N=C/c2cn(-c3ccccc3)nc2-c2cccs2)c1	i	0.99	99	.	.	.	0
COc1ccc(C)cc1NC(=O)CN1CCN(S(=O)(=O)c2ccc(C(C)C)cc2)CC1	i	1	102	-40	187	-0.7	-3
COc1cccc(C2c3[nH]c4ccccc4c3CCN2Cc2cnn(C)c2)c1 (stereo not given)	i	1.1	108	.	.	.	.
CCSc1nnc([C@H](Cc2ccccc2)NC(=O)OC(C)(C)C)o1	i	0.87	97	24	43	0.1	-7
CC(Sc1nnc2c(n1)C1CCC2(C)C1(C)C)C(=O)Nc1ccccc1 (stereo not given)	i	1.1	102	.	.	-0.1	1
COc1ccc(C(=O)CSc2nnc(-c3ccccc3)o2)cc1	i	0.93	101	-19	147	-5.3	9
COc1cccc(NS(=O)(=O)CC23CCC(CC2=O)C3(C)C)c1 (stereo not given)	i	0.86	91	-35	142	-2.5	-8
CC(C)(C)n1nc2c(c1NC(=O)c1ccco1)CS(=O)C2 (stereo not given)	i	0.72	98	0	160	-2.6	9
O=C(NCc1ccccc1)c1nc[nH]c1C(=O)NCc1ccccc1	i	0.88	101	31	111	.	9
CCN(CC)c1ccc(C=N/C(C#N)=C(\N)C#N)cc1	?	.	125	.	.	-1.8	-5
CCSc1nnc(-c2cccc(S(=O)(=O)N(CC)CC)c2)n1Cc1ccccc1	i	1	100	-6	99	-2.3	-3
O=C1CCC(/C=C/c2ccccc2)=NN1Cc1ccc(F)cc1	i	1	109	37	109	.	8
Nc1ccccc1C(=O)Nc1cccc(C(=O)O)c1	i	0.9	102	-9	78	-0.8	-5
COc1ccc(-c2noc(CN(C)S(=O)(=O)c3ccc(Cl)cc3)n2)cc1OC	i	1	105	24	130	-1.8	-7
CCc1nccn1C(=O)c1cnn2c(C(F)F)cc(-c3ccccc3)nc12	i	0.83	106	.	.	-0.8	-11
